Sa RN4220 lethal: S. aureus RN4220 growth inhibition. OD600, 16 h. inhibition, % (no concentration beside the values). hit rate 0.33% among 330,000. AID 1259311;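 active means z-score of -3 or lower and OD600 up to 0.18 on both plates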;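 further: plate controls were untreated cells for no effect and reference antibiotic for full effect; stock transfer was 100 nL into about 80 µL; one replicate is shown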
Mtb hypoxia inh: inhibitors of hypoxia-regulated fluorescent reporter in Mycobacterium tuberculosis; M. tuberculosis hypoxia-regulated fluorescent reporter, fluorescence; fluorescence inhibition, % (no concentration beside the values); hit rate 0.1% among 300,000;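 active means 35 to 45% if threefold the growth effect, above 45% if 1.5-fold the growth effect; inactive means the rest, general growth blockers included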;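 further: wells of about 50 µL received 100 nL stock; 0% = vehicle wells and 100% = reference inhibitor wells; whole bacteria with a GFP reporter of the hypoxia response; strong numbers were not always called active; many hits fall short of the cut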
Autofluor counter: compound fluorescence in toxin protease inhibitor counterscreen | hit rate 3.1% among 360,000 | compound autofluorescence counterscreen, microsphere flow cytometry; active compounds read high | AID 624483 | fluorescence intensity (test concentration not listed);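 active means at least 3 SD above the mean of all compounds, about 16000 in these data; inconclusive means too few beads counted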;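 further: 100 nL of 1 mM stock went into each well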
ugtP null kill: kills S. aureus RN4220 lacking UgtP; hit rate 0.54% among 330,000; S. aureus RN4220 ugtP deletion, OD600 growth, 16 h; some inactives read as strong as hits; AID 1259309; growth inhibition, % (no concentration beside the values);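 active means z-score under -3 and OD600 up to 0.15 on both plates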;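 further: plate controls were untreated wells for no effect and antibiotic for full effect; wells of about 80 µL received 100 nL stock; the first replicate is given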
PrP UTR inh: suppresses PrP 5' UTR mRNA reporter expression; cell-based PrP 5' UTR mRNA reporter, plate reader; inhibition, % (concentration not given with the values); hit rate 0.35% among 340,000; AID 488862;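 active means every replicate at 50% or more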;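 further: 0 = median of the neutral control wells; tested in H4 reporter cells; numbers are from one replicate; inactives centre near -14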
BJeLR viability: BJeLR cell viability loss; hit rate 0.17% among 300,000; BJeLR (HRASV12) viability, CellTiter-Glo ATP luminescence, 48 h; reference of the scale not given here; inhibition, % (test concentration not listed);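 active means replicate mean above 50%; inconclusive means above 50% but judged a plate artefact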;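 further: 50 nL library stock added to about 25 µL; numbers are from one replicate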
Mtb hypoxia inh growth: second read-out of Mtb hypoxia inh, no call of its own (marks repeat the call); growth inhibition, %; measured here: M. tuberculosis growth (absorbance);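 0% = vehicle and 100% = reference antibiotic; read after six days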
An asterisk follows results filed as active.

`Cc1cc(CNC(=S)Nc2cccc(Cl)c2Cl)nn1C` gave Sa RN4220 lethal -1.3, Mtb hypoxia inh -7, Autofluor counter 3392, ugtP null kill 4, PrP UTR inh -5, BJeLR viability 2 and Mtb hypoxia inh growth -6.
For NC(=O)c1sc2nc3c(c(-c4ccccc4)c2c1N)CCC3 the results were Sa RN4220 lethal -0.5, Mtb hypoxia inh -5, Autofluor counter 24788*, ugtP null kill 36, PrP UTR inh 21, BJeLR viability -5 and Mtb hypoxia inh growth 1.
CC1CCN(C(=O)CSc2nnc(CNC(=O)c3c(F)cccc3F)o2)CC1 was read as Sa RN4220 lethal 1.8, Mtb hypoxia inh 5, Autofluor counter 4307, ugtP null kill 0, PrP UTR inh -16, BJeLR viability 8 and Mtb hypoxia inh growth 3.
CC(C)(C)C(=O)Nc1cccc(C(=O)Nc2cc(C(=O)O)cc(C(=O)O)c2)c1 was read as Sa RN4220 lethal 3.7, Mtb hypoxia inh -2, Autofluor counter 2222, ugtP null kill 10, PrP UTR inh -21, BJeLR viability -5 and Mtb hypoxia inh growth -1.
Cc1cccc(-n2nnnc2SCC(=O)Nc2cccc(S(N)(=O)=O)c2)c1 was read as Sa RN4220 lethal 3.9, Mtb hypoxia inh -1, ugtP null kill 11, PrP UTR inh -10, BJeLR viability -6 and Mtb hypoxia inh growth 3.
CCCC(c1nnnn1CCOC)N1CCN(c2cccc(OC)c2)CC1 (centres undefined) was read as Sa RN4220 lethal -3.0, Autofluor counter 4152, ugtP null kill -4, PrP UTR inh -22 and BJeLR viability -6.
COc1ccc(N2CCN(C(=O)CSc3nnc(NC(=O)C4CC4)s3)CC2)cc1 was read as Sa RN4220 lethal 3.1, Mtb hypoxia inh 3, Autofluor counter 4107, ugtP null kill -1, PrP UTR inh -15, BJeLR viability -4 and Mtb hypoxia inh growth 5.
`Cc1ccc(S(=O)(=O)Nc2ccc(N3CCOCC3)nc2)cc1` gave Sa RN4220 lethal 3.7, Mtb hypoxia inh 19, Autofluor counter 4598, ugtP null kill 5, PrP UTR inh -18, BJeLR viability -3 and Mtb hypoxia inh growth 13.
Screening COc1ccc(C2CC(c3cccc(C(F)(F)F)c3)=NN2c2ccc(S(N)(=O)=O)cc2)cc1 (centres undefined) returned Sa RN4220 lethal 82, Mtb hypoxia inh 1, Autofluor counter 3393, ugtP null kill 43, PrP UTR inh 3 and Mtb hypoxia inh growth 8.
Cc1ccc(C(=O)NC2CC(=O)N(c3ccc4c(c3)OCCO4)C2)cc1[N+](=O)[O-] (centres undefined) was read as Sa RN4220 lethal -1.8, Mtb hypoxia inh 0, Autofluor counter inconclusive, ugtP null kill 0, PrP UTR inh -4, BJeLR viability -1 and Mtb hypoxia inh growth 0.
`CC(=O)N/C(=C/c1ccc2c(c1)OCO2)C(=O)Nc1ccccc1` gave Sa RN4220 lethal 0.0, Mtb hypoxia inh 4, Autofluor counter 2709, ugtP null kill 5, PrP UTR inh -17, BJeLR viability 0 and Mtb hypoxia inh growth -3.
Cc1ccc(CSCC(=O)NCc2ccco2)cc1 was read as Sa RN4220 lethal 2.7, Mtb hypoxia inh 13, Autofluor counter 3946, ugtP null kill 0, PrP UTR inh -26, BJeLR viability 3 and Mtb hypoxia inh growth 15.
For Cc1ccc(S(=O)(=O)N2CC(O)C2)cc1 the results were Sa RN4220 lethal 4.5, Mtb hypoxia inh 8, Autofluor counter 3671, ugtP null kill 2, PrP UTR inh -16, BJeLR viability 11 and Mtb hypoxia inh growth 10.
`CCCCNC(=O)C(Sc1ccccc1)c1ccccc1` (centres undefined) gave Sa RN4220 lethal 5.0, Mtb hypoxia inh 0, Autofluor counter 7821, ugtP null kill 4, PrP UTR inh -22, BJeLR viability 14 and Mtb hypoxia inh growth 13.
For CSCC[C@H](NC(=O)Nc1ccc(C)cc1)C(=O)O the results were Sa RN4220 lethal 2.4, Mtb hypoxia inh 4, Autofluor counter 8110, ugtP null kill 3, PrP UTR inh -23, BJeLR viability -1 and Mtb hypoxia inh growth 2.
Screening CN(C(=O)COC(=O)C1=COCCO1)c1c(N)n(Cc2ccccc2)c(=O)[nH]c1=O returned Sa RN4220 lethal 1.9, Mtb hypoxia inh -2, Autofluor counter 5043, ugtP null kill 0, PrP UTR inh -10, BJeLR viability 2 and Mtb hypoxia inh growth -1.
COC(=O)c1cc(OC(=O)CCc2ccc(OC)c(OC)c2)cc(C(=O)OC)c1 was read as Sa RN4220 lethal 1.3, Mtb hypoxia inh 0, Autofluor counter 4282, ugtP null kill 3, PrP UTR inh -20, BJeLR viability -10 and Mtb hypoxia inh growth -2.
`O=S(=O)(N/N=C/c1ccc(Cl)cc1)c1ccc(Cc2ncc(C(F)(F)F)cc2Cl)s1` gave Autofluor counter 3819, PrP UTR inh -16 and BJeLR viability -2.
Screening Cc1ccc(CNC(=O)COC(=O)c2cccnc2Cl)cc1 returned Sa RN4220 lethal 3.0, Mtb hypoxia inh 13, Autofluor counter 2951, ugtP null kill 8, PrP UTR inh -6 and Mtb hypoxia inh growth 14.
Screening Cc1csc(=O)n1CC(=O)OCc1nnc(-c2ccc([N+](=O)[O-])cc2)o1 returned Sa RN4220 lethal -0.9, Mtb hypoxia inh -15, Autofluor counter 3920, ugtP null kill 1, PrP UTR inh -17 and Mtb hypoxia inh growth 3.
COc1cc2c(cc1OC)-c1cc(N3CCc4ccccc43)nc(=O)n1CC2 was read as Sa RN4220 lethal -0.5, Mtb hypoxia inh -4, ugtP null kill -13, PrP UTR inh -17, BJeLR viability 7 and Mtb hypoxia inh growth 7.
`O=C1CN(C(=O)c2cccc(Br)c2)c2ccccc2N1` gave Sa RN4220 lethal 5.5, Mtb hypoxia inh 6, Autofluor counter 5868, ugtP null kill 2, PrP UTR inh -14, BJeLR viability 11 and Mtb hypoxia inh growth -1.
Screening C(=NN=Cc1ccncc1)c1ccncc1 returned Sa RN4220 lethal 6.4, Mtb hypoxia inh 20, ugtP null kill 4 and Mtb hypoxia inh growth 10.
`COC(=O)c1cc(OC)c(OC)cc1NC(=O)Nc1cccc(C(C)=O)c1` gave Sa RN4220 lethal 1.7, Mtb hypoxia inh 7, Autofluor counter 4082, ugtP null kill 3, PrP UTR inh -71, BJeLR viability -1 and Mtb hypoxia inh growth 1.
`CC(=O)OC1C(N2CCCCC2)c2c(ccc(/C=C/C(=O)N3CCCCC3)c2O)OC1(C)C` (centres undefined) gave Sa RN4220 lethal 2.7, Mtb hypoxia inh 15, Autofluor counter 3291, ugtP null kill 19, PrP UTR inh -17, BJeLR viability 3 and Mtb hypoxia inh growth 13.
For O=C(CN1CCCCC1)N1c2ccccc2CCc2ccccc21 the results were Sa RN4220 lethal 1.4, Mtb hypoxia inh -6, Autofluor counter 3047, ugtP null kill 2, PrP UTR inh -10, BJeLR viability -4 and Mtb hypoxia inh growth 3.
`c1ccc(CN2CCOCC2)cc1` gave Sa RN4220 lethal -1.8, Mtb hypoxia inh 1, Autofluor counter 5171, ugtP null kill -1, PrP UTR inh -14, BJeLR viability 4 and Mtb hypoxia inh growth 6.
`O=C(CNC(=O)c1ccco1)NN=Cc1ccc(O)cc1O` gave Sa RN4220 lethal 2.5, Mtb hypoxia inh 4, ugtP null kill 5 and Mtb hypoxia inh growth 0.
O=C(c1ccccc1)N1CCN(S(=O)(=O)N2CCCCCC2)CC1 was read as Sa RN4220 lethal 0.7, Mtb hypoxia inh -7, Autofluor counter 6232, ugtP null kill 4, PrP UTR inh 8, BJeLR viability 1 and Mtb hypoxia inh growth 7.
For C/C(=N\NC(=O)CNC(=O)c1ccncc1)c1ccc(C)cc1 the results were Autofluor counter 2282, PrP UTR inh -23 and BJeLR viability 6.
COc1cccc(C(=O)Nc2ccc(N3CCCC3)cc2)c1 was read as Sa RN4220 lethal 3.6, Autofluor counter 2212, ugtP null kill -5, PrP UTR inh -66 and BJeLR viability 53*.
COc1cc(NC(=O)c2ccc(-c3ccc(Br)cc3)o2)ccc1NC(=O)C(C)C was read as Sa RN4220 lethal -4.8, Autofluor counter 2783, ugtP null kill 11, PrP UTR inh -2 and BJeLR viability 4.
For O=C(CSCc1cccc(CSCC(=O)Nc2ccccc2)n1)Nc1ccccc1 the results were Sa RN4220 lethal 8.2, Mtb hypoxia inh 10, Autofluor counter 3192, ugtP null kill 0, PrP UTR inh -3, BJeLR viability -1 and Mtb hypoxia inh growth 10.
CC(C)Oc1ccc(C(=O)NC2(C(F)(F)F)NC(=O)N(CCCc3ccccc3)C2=O)cc1 (centres undefined) was read as Sa RN4220 lethal 5.4, Mtb hypoxia inh 12, Autofluor counter 11257, ugtP null kill 13, PrP UTR inh 0, BJeLR viability 5 and Mtb hypoxia inh growth -2.
`Cc1ccc(S(=O)(=O)N2CCN(C(=O)Cn3cnc4c3c(=O)n(C)c(=O)n4C)CC2)cc1C` gave Sa RN4220 lethal 5.0, Mtb hypoxia inh 15, Autofluor counter 3584, ugtP null kill 4, PrP UTR inh -21 and Mtb hypoxia inh growth 7.
Screening O=C1CCN(Cc2cccnc2)CCN1[C@H](CO)Cc1ccccc1 returned Autofluor counter 3380, PrP UTR inh -13 and BJeLR viability -10.
Screening O=C(CC1SC(=NCCc2ccccc2)N(/N=C/c2cccs2)C1=O)Nc1ccc(Cl)cc1 (centres undefined) returned Autofluor counter 9481, PrP UTR inh -12 and BJeLR viability -14.
COc1ccc(CC(C)=NNC(=O)c2ccc(Cl)cc2)cc1 was read as Sa RN4220 lethal 2.3, Mtb hypoxia inh 5, ugtP null kill 5 and Mtb hypoxia inh growth 2.
For CNC(=S)c1cc(C(C)(C)C)c(O)c(C(C)(C)C)c1 the results were Sa RN4220 lethal -5.6, Mtb hypoxia inh -14, Autofluor counter 5177, ugtP null kill 2, PrP UTR inh -7, BJeLR viability -4 and Mtb hypoxia inh growth 10.
`O=C(O)Cc1ccc2ocnc2c1` gave Sa RN4220 lethal -0.2, Mtb hypoxia inh 4, Autofluor counter 9480, ugtP null kill 7, PrP UTR inh -5, BJeLR viability -4 and Mtb hypoxia inh growth -5.
`CC(C)c1ccc(NC(=O)NCc2ccc(F)cc2)cc1` gave Sa RN4220 lethal -4.9, Mtb hypoxia inh 1, Autofluor counter 2635, ugtP null kill 2, PrP UTR inh -38, BJeLR viability 4 and Mtb hypoxia inh growth 3.
Screening CC1=C(C(=O)Nc2ccccc2)C(c2cccc([N+](=O)[O-])c2)Nc2nc3ccccc3n21 (centres undefined) returned Sa RN4220 lethal -2.2, Mtb hypoxia inh 1, Autofluor counter 23880*, ugtP null kill -4, PrP UTR inh -9, BJeLR viability -2 and Mtb hypoxia inh growth 6.
COc1ccc(C2/C=C\CN(C(=O)c3ccc(C)cc3)[C@H](Cc3ccccc3)C(=O)N2Cc2ccc(F)cc2)cc1 (some centres undefined) was read as Autofluor counter 3990, PrP UTR inh 9 and BJeLR viability 7.
Screening Cc1ccc(C)c(S(=O)(=O)Nc2ccc(O)c3ccccc23)c1 returned Sa RN4220 lethal 19, Mtb hypoxia inh 16, Autofluor counter 2772, ugtP null kill 5, PrP UTR inh -20, BJeLR viability -9 and Mtb hypoxia inh growth 6.
O=C(CNC(=O)c1ccc(F)cc1)N/N=C/c1cccnc1 was read as Autofluor counter 4841, PrP UTR inh -16 and BJeLR viability 4.
Screening COC(=O)C1=C(C)N(Cc2ccco2)C(=O)/C1=C\c1ccc(N(C)C)cc1 returned Autofluor counter 9085, PrP UTR inh -1 and BJeLR viability 14.
`COc1cccc(C(=O)CC(=O)C(=O)Nc2ccc(C)cc2Cl)c1` gave Sa RN4220 lethal 77, Mtb hypoxia inh 7, Autofluor counter 3499, ugtP null kill 87*, PrP UTR inh -29, BJeLR viability 2 and Mtb hypoxia inh growth -3.
`O=C(O)CC/C(=C\c1cccc(NC(=O)c2ccccc2Cl)c1)c1nc2ccccc2s1` gave Sa RN4220 lethal 20, Mtb hypoxia inh 9, Autofluor counter 4464, ugtP null kill 18, PrP UTR inh -6, BJeLR viability 0 and Mtb hypoxia inh growth 13.
For Cn1c(C(=O)NCC2CCCO2)cc2c(=O)n3ccccc3nc21 (centres undefined) the results were Sa RN4220 lethal -0.3, Mtb hypoxia inh 8, Autofluor counter 4296, ugtP null kill -1, PrP UTR inh -17, BJeLR viability -9 and Mtb hypoxia inh growth 6.

Screening data from PubChem BioAssay.
